NS1 inh: blocks influenza NS1 protein function; Potency, µM (doses to about 46.1 µM), for the others: at the highest dose activity, positive = more growth; S. cerevisiae slowed by influenza A NS1, growth recovery by OD600; actives 0.4% (n = 270,000); AID 2326; active means well fitted rising curve with a large enough effect; inconclusive means small, poorly fitted or top-dose-only effect; inactive means no such curve, though single readings can be large or run the other way; also: nearly all actives have a fitted effect of over 50% in size
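Growth recovery, yeast-based: influenza A NS1 expressed in S. cerevisiae causes slow growth, and suppressors are detected by OD600. The parent strain without NS1 is used as positive control.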
Cruzain inh Det: blocks cruzain activity in presence of Triton detergent; P25779; purified cruzain, Z-FR-AMC fluorescence, 0.01% Triton; Potency, µM, without a hit: max response, negative = inhibition, most hits filed as inhibitors; actives 0.43% (n = 200,000); AID 1478;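 also: plate controls were neutral wells for no effect and buffer without enzyme for full effect; nearly all actives have a fitted effect of over 40% in size; top concentration of the series not given in the record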
Target sequence (P25779 123-467 limits assumed): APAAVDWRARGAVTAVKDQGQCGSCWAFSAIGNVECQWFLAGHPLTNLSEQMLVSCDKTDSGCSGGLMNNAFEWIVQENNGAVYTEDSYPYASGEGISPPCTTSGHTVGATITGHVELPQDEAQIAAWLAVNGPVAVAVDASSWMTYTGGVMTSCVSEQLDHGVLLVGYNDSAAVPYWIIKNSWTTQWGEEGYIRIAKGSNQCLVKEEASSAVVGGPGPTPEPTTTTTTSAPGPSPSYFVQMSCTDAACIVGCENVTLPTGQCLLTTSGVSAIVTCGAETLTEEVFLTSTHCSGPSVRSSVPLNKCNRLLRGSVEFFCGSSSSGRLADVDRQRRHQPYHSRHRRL
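Cysteine protease activity tested under reducing, mildly acidic conditions (100 mM sodium acetate pH 5.5, 5 mM DTT) plus 0.01% Triton X-100. Cruzain 1.5 nM; substrate Z-FR-AMC 2 uM; 15 min compound preincubation at room temperature.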
SARS PLP yeast: inhibitors of SARS-CoV papain-like protease in yeast; S. cerevisiae expressing SARS-CoV PLpro, growth rescue; control for the full effect not named in the record; Potency, µM (series often up to 32.9 µM), for inactives: at the highest dose activity, positive = growth rescue; actives 0.19% (n = 330,000); active means well fitted rising curve with a large enough effect; inconclusive means small, poorly fitted or top-dose-only effect; inactive means no such curve, though single readings can be large or run the other way; also: 0% is about no effect; nearly all actives have a fitted effect of over 55% in size; growth read by luminescence after 48 h
Lassa entry inh: Lassa virus entry inhibition; Lassa virus pseudotype entry inhibition, cell reporter; control for the full effect not named in the record; Potency, µM (titrated, usually from 37.9 µM), without a hit: at the highest dose activity change, negative = inhibition, most hits filed as inhibitors; actives 1.2% (n = 300,000); AID 540256; active means well fitted inhibition curve with a large enough effect; inconclusive means small, poorly fitted or top-dose-only effect, or effect the other way; inactive means flat fitted curve, though single readings scatter; tested in HEK293 cells; also: % is scaled to controls: 0 for no effect and ±100 for the full control effect; nearly all actives have a fitted effect of over 50% in size; luciferase read-out
RE007 growth inh: less growth of the S. pombe RE007 Vpr strain; S. pombe RE007 Vpr strain, BacTiter-Glo ATP luminescence, 24 h; control for the full effect not named in the record; Potency, µM (doses to about 92.2 µM), without a hit: at the top dose activity change, negative = less growth; actives 0.21% (n = 360,000); AID 651644; active = well fitted falling curve with a large enough effect; inconclusive = small, poorly fitted or top-dose-only effect; inactive = no such curve, though single readings can be large or run the other way;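 also: % is scaled to controls: 0 for no effect and ±100 for the full control effect; nearly all actives have a fitted effect of over 50% in size; the assay follows cell death caused by Vpr and the record does not say whether a fall means rescue or toxicity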
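Fission yeast strain RE007, carrying one chromosomally integrated HIV-1 vpr copy, was seeded at OD 0.01 in PMG+AL medium with 23 nL pinned compound. After 24 h at 30 °C and 99% humidity, viability was read by BacTiter-Glo luminescence.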
Marburg entry inh: inhibitors of Marburg virus binding or cell entry | Marburg virus pseudotyped entry inhibition, cell reporter; control for the full effect not named in the record; about a third of the inactives were read at about 46 µM | Potency, µM (doses to about 37.8 µM), inactives show at the highest dose activity change, negative = inhibition, usual class: inhibitors | actives 1.8% (n = 300,000); active = well fitted inhibition curve with a large enough effect; inconclusive = small, poorly fitted or top-dose-only effect, or effect the other way; inactive = flat fitted curve, though single readings scatter; tested in HEK293 cells; about a fifth of its hits are not listed in these tables; also: % is scaled to controls: 0 for no effect and ±100 for the full control effect; luciferase read-out
StopGo reporter: lowers the luciferase signal of an FMDV 2A StopGo reporter; Potency, µM (series often up to 57.9 µM), for inactives: at the top dose signal change, negative = less light; AID 1159524; actives 1.2% (n = 410,000); human cells with a luciferase reporter of 2A StopGo recoding; control for the full effect not named in the record; active = well fitted falling curve with a large enough effect; inconclusive = small, poorly fitted or top-dose-only effect; inactive = no such curve, though single readings can be large or run the other way; tested in HEK293T cells; also: % is scaled to controls: 0 for no effect and ±100 for the full control effect; nearly all actives have a fitted effect of over 45% in size; luciferase light after 4 h
Cruzain noTriton: inhibitors of Trypanosoma cruzi cruzain without detergent; P25779; purified cruzain, Z-FR-AMC fluorescence, no detergent; Potency, µM, without a hit: max response, negative = inhibition, usual class: inhibitors; actives 2.3% (n = 200,000);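 also: plate controls were enzyme without inhibitor for no effect and buffer without enzyme for full effect; nearly all actives have a fitted effect of over 40% in size; top concentration of the series not given in the record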
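Detergent-free condition (0.00005% Triton X-100) in acetate buffer pH 5.5 with DTT. 1.5 nM enzyme and compound were pre-mixed 15 min, then 2 uM Z-FR-AMC substrate added; reaction progress from fluorescence change between first and third reads (60 s).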
An asterisk follows results filed as active; u = inconclusive; x = not tested or not shown; & = joins results of further samples; [ ] = another dose, or the depositor's remark. Unless noted, calls follow the shape of the dose curve; as a rule, active = well fitted curve in the direction sought with a large enough effect; inconclusive = small, poorly fitted or top-dose-only effect, or another doubt; inactive = no such curve, though single readings can be large; an effect the other way counts as inactive or inconclusive. Potency is read from the fitted curve at half-maximal effect.

SMILES | NS1 inh | Cruzain inh Det | SARS PLP yeast | Lassa entry inh | RE007 growth inh | Marburg entry inh | StopGo reporter | Cruzain noTriton
CN1C(=O)/C(=C/c2ccccc2OCc2ccccc2F)NC1=S | 1% | -6.9% | 8% | -5% | 2% | 16% | -29% | -3%
CC(C)N1C(=O)CN(C2CCCCCC2)C(=O)C1c1ccccc1F (stereo not drawn) | 7% | 2.6% | -1% | 28% | -1% | u | 50%[activator] | 5%
COc1ccc(C)cc1N(C(=O)c1ccco1)C(C(=O)NC1CCCC1)c1cc(OC)c(OC)c(OC)c1 (stereo not drawn) | 4% | x | 1% | -6% | -13% | u | -1% | x
Cc1cccc(Cn2c(C)c(C)c3cc(C(=O)NCc4ccco4)ccc32)c1 | x | -6.3% | x | u | x | x | -7% | -19%
CON(C)c1nc(OCC#N)nc(N(C)C)n1 | -3% | 2.6% | 6% | 10% | 14% | -11%[46.1 µM] | 9% | 1%
CCN1CCN(C(=O)CCN2C(=O)c3ccccc3S2(=O)=O)CC1 | x | x | x | -15% | 3% | -5% | 0% | x
CC(C)(C)CC(C)(C)n1nnnc1N | x | x | x | 1%[46.1 µM] | -16% | -3%[46.1 µM] | 6% | x
COc1cc(NC(=O)C2CCCN2S(=O)(=O)c2ccc3c(c2)CC(C)N3C(C)=O)cc(OC)c1 (stereo not drawn) | -27% | x | -2% | x | -1% | x | -2% | x
O=c1c2ccccc2ncn1C1CCCCC1 | -15% | 3.3% | x | u | -2% | 15% | 0% | 3%
CCc1cccc(CC)c1NC(=O)COC(=O)c1ccccc1-c1nc2ccccc2s1 | 0% | -6.1% | 28% | 5% | 15% | u | -17% | u
COc1ccccc1N(CC(=O)NCCN1CCOCC1)S(=O)(=O)c1ccccc1 | 5% | x | 0% | 13%[46.1 µM] | -3% | -4%[46.1 µM] | 3% | x
Cn1c(SCC(=O)NNC(=O)c2ccc(Br)cc2)nnc1-c1cccnc1 | x | x | 1% | 10% | -1% | 2% | -12% | x
CN1CCN(S(=O)(=O)c2cccc(C(=O)Nc3nccs3)c2)CC1 | -1% | x | 0% | -8% | 1% | 4%[46.1 µM] | -25% | x
COc1ccc(CCNC(=O)C(=O)Nc2nccs2)cc1OC | 6% | 4.3% | 5% | 3% | -6% | -16% | 11% | -4%
Cc1cc2c(c(SCC(=O)N(C)c3ccccc3)n1)C(=O)OC2 | 15% | 3.6% | 3% | 15% | 12% | -4% | -1% | 9%
O=C(Cc1ccc(-n2c(=O)[nH]c3ccccc3c2=O)cc1)N1CCN(c2cccc(Cl)c2)CC1 | 27% | -5.3% | -1% | 2% | 2% | -23% | -15% | 14%
COc1ccccc1C1=NOC(COC(=O)c2ccc3ccccc3n2)C1 (stereo not drawn) | -47% | 0.7% | -1% | 2% | -9% | 9% | x | -9%
CCCCNC(=O)Cn1c(=O)oc2cc(S(=O)(=O)N3CC(C)CC(C)C3)ccc21 (stereo not drawn) | 0% | 2.9% | -4% | x | -7% | x | 2% | 4%
O=[N+]([O-])c1cc(O)c(O)c([N+](=O)[O-])c1 | 5% | -8.7%&-5.1%&-11% | x | u | -11%[18.4 µM] | -8%&-8%&-8%&29%&-8%&-8% | -20%&-14%&-16% | 7%&-9%&3%
Cc1ccc(Cn2c(=O)c3cccnc3n(CC(=O)Nc3cc(Cl)ccc3C)c2=O)cc1 | x | 0.4% | x | x | x | 23%[46.1 µM] | -20% | -7%
COc1cccc(CNC(=O)c2ccc(OC)c(S(=O)(=O)NC3CCCC3)c2)c1 | x | x | 11% | 7%[46.1 µM] | -10% | -5% | 22% | x
Cc1cccnc1NC1OC(=O)c2ccccc21 (stereo not drawn) | 5% | 3.3% | -2% | 22% | 14% | u | 12% | -3%
Cc1ccc(S(=O)(=O)Cc2cccc(C(=O)N3CCOCC3)c2)cc1 | 2% | 1.1% | -1% | 4% | -6% | 6% | -6% | -7%
Cc1ccccc1CNC1CCCCC1 | -7% | 1.6% | -9% | 8% | 5% | -2% | -12% | -3%
COc1nnc(-c2ccc(C)c(S(=O)(=O)NCC3CCCO3)c2)c2ccccc12 (stereo not drawn) | -7% | x | 3% | u | -2% | 3%[46.1 µM] | 65%[activator] | x
COC(=O)c1cc(CNC(=O)CC(C)c2ccccc2)ccc1OC (stereo not drawn) | -5% | x | 1% | -26% | -14% | 7%[46.1 µM] | -11% | x
O=C(O)C1C2C=CC(C2)C1C(=O)NCc1cccnc1 (stereo not drawn) | 3% | -1.7% | 2% | 0% | 1% | u | -9% | -12%
Cc1cc(=O)oc2c3c4c(cc12)OCCN4CCC3 | 12% | u | -6% | -2% | -10% | u | -7% | 3%
O=C1CN(S(=O)(=O)c2ccc(Br)cc2)c2ccccc2N1 | -6% | x | 3% | x | -4% | x | -24% | x
O=[N+]([O-])c1ccc2c(c1)S(=O)c1ccccc1-2 (stereo not drawn) | 0%&0% | -2.2% | -1% | 28% | -29% | 13%&13%&13% | -5% | 3%
COc1ccc(C/C(N)=N/OC(=O)Cc2ccccc2)cc1OC | -6% | 4.0% | 2% | 5% | -21% | u | -27% | 0%
O=C(CCCNC(=O)c1ccc(Cl)cc1)OCc1cccc(Br)c1 | x | x | 4% | -3% | -15% | 6%[46.1 µM] | -5% | x
CCOC(=O)c1c(C)nc2sc3c(=O)n(-c4ccc(C(C)=O)cc4)cnc3c2c1-c1ccc(Cl)cc1 | -2% | 1.2% | -5% | u | 10% | u | -18% | -4%
COc1ccc(C(=O)CC(=O)O)c2c1C=CC(C)(C)O2 | -1% | -2.2% | 1% | -2% | 1% | -10% | 5% | -16%
CC(=O)c1ccc(NC(=O)C2CCCC2)cc1 | -7% | x | 0% | x | -5% | x | 37%[activator] | x
CN1C(=O)/C(=C2\SC(=S)N(CC3CCCO3)C2=O)c2ccccc21 (stereo not drawn) | -12% | 0.3% | -3% | x | x | 0% | x | 0%
CCOCCCNC(=O)CCNC(=O)c1cc(OC)c(OC)c(OC)c1 | 12% | 7.3% | 10% | -1% | -2% | 2% | -4% | 16%
Cc1c(CCC(=O)N2CCC(C(=O)O)(c3ccccc3)CC2)c(=O)oc2cc3oc4c(c3cc12)CCCC4 | -3% | x | -10% | x | 4% | x | u | x
COc1ccc(NC(=O)CN(C)C(=O)c2cccc(S(=O)(=O)N3CC4(C)CC3CC(C)(C)C4)c2)cc1 (stereo not drawn) | x | x | -1% | u | -1% | u | -4% | x
CCCCn1c(CCC(=O)O)nc2cc(S(=O)(=O)N3CCCC3)ccc21 | x | x | -1% | -1% | 4% | -1% | -2% | x
Clc1ccc(CN=C2Nc3ccccc3CS2)cc1 | -5% | -17% | -4% | u | -7% | 4% | 23% | -9%
CCn1c(=O)c(C(=O)NNC(=O)c2cccc(Cl)c2)c(O)c2ccccc21 | -41% | x | 8% | -17% | -25% | -2%[46.1 µM] | -3% | x
CC1S/C(=N/N=C2CCCCC2)NC1=O (stereo not drawn) | 3% | -0.9% | -13% | 20% | 5% | u | -14% | 3%
COC(=O)c1ccccc1NC(=O)C1=CC(c2ccc3c(c2)OCO3)=NS(=O)(=O)N1C | x | -3.4% | x | 0%[46.1 µM] | x | -1%[46.1 µM] | -9% | 10%
CN(C)c1ccc(C2Nc3ccccc3C(=O)N2NS(C)(=O)=O)cc1 (stereo not drawn) | -3% | x | -1% | x | 4% | x | 23% | x
c1ccc2sc(-c3ccc4c(c3)OCO4)nc2c1 | -15% | -5.2% | -10% | 9.2µM* | u | u | -76% | 3%
CCOc1ccc(C2c3c(oc4ccc(C)cc4c3=O)C(=O)N2c2nc(C)c(C)s2)cc1OC (stereo not drawn) | x | -1.4% | x | u | x | -18%[46.1 µM] | -16% | 9%
Cc1ccc2[nH]c(=O)c(CN(CC3CCCO3)C(=S)NCc3ccco3)cc2c1 (stereo not drawn) | 3% | -4.1% | 0% | 4% | 4% | u | -12% | 14%
CN1/C(=C\C(=O)C[n+]2ccc3ccccc3c2)C(C)(C)c2ccccc21 | x | x | 0% | u | u | u | u | x
O=C1NC(=O)N(c2ccccc2)C(=O)/C1=C\C=C\c1ccccc1 | 13% | x | 1% | -2% | 33% | 1%[46.1 µM] | 13µM* | x
Cn1ccnc1SCCNC(=O)CCc1nnc(CCc2ccccc2)o1 | -2% | x | 0% | 16%[46.1 µM] | -13% | u | 1% | x
CCC(C)NC(=O)c1cc2cc3ccc(OC)cc3nc2s1 (stereo not drawn) | -79% | 19% | -4% | 8% | -5% | u | 9% | 15%
CCOC(=O)c1ccccc1NC(=O)c1nn(C)c2c1COc1ccccc1-2 | x | -8.1% | x | -9%[46.1 µM] | x | u | -11% | 2%
Cc1ccc(-c2c[n+](CC(=O)Nc3nc(-c4ccc(F)cc4)cs3)c3n2CCC3)cc1 | -21% | -6.3% | 4% | -19% | 29% | -13% | u | 0%
CCCCCCCc1ccc(C2NC(=S)NC3=C2C(=O)c2ccccc23)cc1 (stereo not drawn) | u | x | 0% | x | -6% | x | 0% | x
COC(=O)/C(=C\Nc1ccccc1N)c1ncc(C(F)(F)F)cc1Cl | -3% | -4.9% | -10% | -11% | -19% | u | -6% | -3%
Cc1nc(CSc2ccccc2)cc(=O)[nH]1 | x | x | -2% | 0% | -4% | u | -1% | x
COCCc1nnc(NC(=O)C(C)C)s1 | 4% | x | 0% | 12% | 2% | 2%[46.1 µM] | 2% | x
O=C(NCc1ccccc1)C1=C[C@H](C2CC2)C[C@H](OCCCCO)O1 | 1% | x | -2% | x | 12% | x | 1% | x

Record cards (already shown).
Listed for `Cn1ccnc1SCCNC(=O)CCc1nnc(CCc2ccccc2)o1` : NS1 inh = -2%; Cruzain inh Det = x; SARS PLP yeast = 0%; Lassa entry inh = 16%[46.1 µM]; RE007 growth inh = -13%; Marburg entry inh = u; StopGo reporter = 1%; Cruzain noTriton = x
Listed for `COC(=O)/C(=C\Nc1ccccc1N)c1ncc(C(F)(F)F)cc1Cl` : NS1 inh = -3%; Cruzain inh Det = -4.9%; SARS PLP yeast = -10%; Lassa entry inh = -11%; RE007 growth inh = -19%; Marburg entry inh = u; StopGo reporter = -6%; Cruzain noTriton = -3%
